Compound activity deposited in PubChem by several laboratories.
E coli growth: inhibitors of Escherichia coli growth; OD600 absorbance (concentration not given with the values); AID 1053175; OD600, 23 h; stronger effect = lower value; 330,000 tested, 0.21% active;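 active means OD600 absorbance below the run mean of sample wells minus 3.6 SD, in any replicate, cut at about 0.56 in these data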;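 further: stock transfer was 300 nL into about 60 µL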
LANA-H2B inh: blocks KSHV LANA binding to histone H2A/H2B; AID 2629; cell-free LANA-H2A/H2B peptide, fluorescence polarization; 320,000 tested, 0.6% active; Q9QR71; inhibition, % (concentration not given with the values); in the data active means inhibition mostly above about 10%, no sharp cut-off; inactive means mostly below about 6.7%;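 further: stock transfer was 7.5 nL into about 10 µL; 0% = median of vehicle wells and 100% = median of positive control wells; one replicate is shown; the record names a cut of 25% in any replicate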
ALR H2O2 inh: inhibitors of human sulfhydryl oxidase ALR. P55789. purified ALR, DTT oxidation, H2O2 HRP-luminol luminescence. inhibition, % (no concentration beside the values). 290,000 tested, 3.8% active. AID 485317;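 active means mean and each replicate at 75% or more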;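 further: stock transfer was 7.5 nL into about 7.5 µL; 0% = neutral wells and 100% = wells with inactivated enzyme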
UCH37 inh: blocks the human deubiquitinase UCH37. Q9Y5K5. inhibition, % (concentration not given with the values). purified proteasome/UCH37, Ub-AMC cleavage fluorescence. 330,000 tested, 0.33% active;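 active means mean of two replicates above 20%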;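 further: 0% = compound-free wells with enzyme and 100% = wells lacking proteasome; stock transfer was 100 nL into about 20 µL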
Target sequence (Q9Y5K5 whole entry, looked up): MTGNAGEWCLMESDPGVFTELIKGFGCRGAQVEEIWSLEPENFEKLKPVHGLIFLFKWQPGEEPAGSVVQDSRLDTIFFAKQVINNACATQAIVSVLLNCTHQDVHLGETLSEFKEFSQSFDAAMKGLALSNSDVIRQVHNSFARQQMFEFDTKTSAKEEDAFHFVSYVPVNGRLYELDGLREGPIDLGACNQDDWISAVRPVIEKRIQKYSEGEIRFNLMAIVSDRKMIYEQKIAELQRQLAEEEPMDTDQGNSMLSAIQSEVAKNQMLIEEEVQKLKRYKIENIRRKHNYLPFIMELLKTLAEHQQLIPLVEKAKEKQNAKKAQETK
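Material: human UCH37 enzyme supplied as purified proteasome complex / Amount: 0.15 nM proteasome as dispensed / Buffer or medium: pH 7.4 Tris-HCl (50 mM) with ovalbumin, ATP-MgCl2, DTT / Times: preincubation 30 min, reaction 25 min, room temperature / Technique: AMC fluorescence from Ub-AMC cleavage, excitation 355 nm, emission 460 nm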
Beta2AR agonist: activates human beta-2 adrenergic receptor causing internalization. Am2.2-beta2AR cells, FAP receptor internalization, flow cytometry; reference of the scale not given here. P07550. response, % (concentration not given with the values). 340,000 tested, 0.43% active;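 active means response above a set limit, near 3 SD of response in nonfluorescent compounds, cut at about 42% in these data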;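 further: stock transfer was 100 nL into about 11 µL; a reference agonist was the positive control; negative values mostly stem from fluorescent compounds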
Target sequence (P07550 whole entry, looked up): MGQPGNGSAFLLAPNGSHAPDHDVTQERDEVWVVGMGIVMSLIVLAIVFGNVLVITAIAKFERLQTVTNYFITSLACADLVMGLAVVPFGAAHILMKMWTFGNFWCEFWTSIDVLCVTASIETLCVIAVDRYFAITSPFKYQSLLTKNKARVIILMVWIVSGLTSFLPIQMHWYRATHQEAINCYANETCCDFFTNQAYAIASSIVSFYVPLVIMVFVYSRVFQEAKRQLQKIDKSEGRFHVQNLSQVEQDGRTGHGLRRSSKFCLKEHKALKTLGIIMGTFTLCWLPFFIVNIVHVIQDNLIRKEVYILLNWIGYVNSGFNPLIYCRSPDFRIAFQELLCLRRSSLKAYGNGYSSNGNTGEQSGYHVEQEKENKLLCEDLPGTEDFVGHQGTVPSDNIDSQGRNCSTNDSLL
HNF4A DNA FP: change in binding of human HNF4 alpha to DNA | HNF4a-FITC DNA binding, fluorescence polarization, 1 h | activity change, % at 10 µM | 360,000 tested, 0.3% active | AID 1224865; in the data active means activity change above about 30%, passing the limit was not always enough;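 further: controls were the assay level and a saturating level of protein; the project sought stronger binding though the title names inhibitors; some compounds called inactive have numbers as strong as hits; positive values seem to mean higher polarization but the record does not say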
FGF22 binding: shifts melting point of recombinant human FGF22; Q9HCT0; recombinant FGF22 thermal shift, SYPRO orange fluorescence; percent of sucrose octasulfate shift, DMSO zero; calls only at 9.99 µM; 340,000 tested, 1.5% active; AID 651658;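 active means melting point raised past a set limit in the mean and every replicate; three in four hits are not shown here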
Target sequence (Q9HCT0 whole entry, looked up): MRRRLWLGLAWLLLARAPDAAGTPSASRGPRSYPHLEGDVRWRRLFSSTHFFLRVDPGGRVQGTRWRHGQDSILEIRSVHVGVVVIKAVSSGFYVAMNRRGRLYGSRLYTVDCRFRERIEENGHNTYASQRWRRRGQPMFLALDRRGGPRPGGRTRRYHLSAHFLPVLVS
Numbers without * were called inactive. Some of the compounds tested; the hit share may differ from the screen's.

For CS(=O)(=O)N1CCCC(C(=O)N2CCc3ccccc3C2)C1 (centres undefined) the results were E coli growth 0.65, LANA-H2B inh -0.5, ALR H2O2 inh -12, UCH37 inh 6.6, Beta2AR agonist 2 and HNF4A DNA FP 1.0.
For COc1ccccc1CCNC(=O)c1cnn2c(C(F)F)cc(C)nc12 the results were E coli growth 0.7, LANA-H2B inh -0.9, ALR H2O2 inh 1, UCH37 inh 0.4, Beta2AR agonist 5, HNF4A DNA FP 2.3 and FGF22 binding inactive.
For Cc1ccc(S(=O)(=O)N2[C@@H](c3cccc(C)c3)C(C(=O)O)=C[C@H]2CC2CCCC2)cc1 the results were E coli growth 0.67, LANA-H2B inh 2.9, UCH37 inh 0.9, Beta2AR agonist 8, HNF4A DNA FP -0.6 and FGF22 binding inactive.
Screening CCOc1ccc(NC(=O)CN2CC(c3ccccc3)CC2=O)cc1 (centres undefined) returned E coli growth 0.71, LANA-H2B inh 6.5, ALR H2O2 inh -13, UCH37 inh 0.6, Beta2AR agonist 7, HNF4A DNA FP 2.1 and FGF22 binding inactive.
Screening CCN1CC2([N+](=O)[O-])CC=C(OC)C([N+](=O)[O-])(C1)C2 (centres undefined) returned UCH37 inh 3.3, Beta2AR agonist -1 and HNF4A DNA FP 3.1.
For CCN1C(=O)[C@H]2[C@@H](c3ccc(C)cc3)N3C(=O)N(c4ccc(C)cc4)C(=O)[C@@]3(Cc3ccccc3)[C@H]2C1=O the results were LANA-H2B inh 2.6, ALR H2O2 inh -16, UCH37 inh 2.2, Beta2AR agonist 6, HNF4A DNA FP 1.2 and FGF22 binding inactive.
`COc1ccccc1C(=O)Nc1nnc(SCC(=O)Nc2ccc3c(c2)oc2ccccc23)s1` gave E coli growth 0.71, LANA-H2B inh 1.2, ALR H2O2 inh -9, UCH37 inh -7.7, Beta2AR agonist -5 and HNF4A DNA FP 12.
O=C(Cn1nnc2ccccc2c1=O)NCCc1ccccc1 was read as E coli growth 0.65, LANA-H2B inh -4.0, ALR H2O2 inh 2, UCH37 inh 0.0, Beta2AR agonist 3, HNF4A DNA FP 4.8 and FGF22 binding inactive.
`O=C(COC(=O)c1ccccc1Cl)NCc1ccco1` gave E coli growth 0.68, LANA-H2B inh -10, ALR H2O2 inh -2, UCH37 inh 1.3, Beta2AR agonist -11, HNF4A DNA FP -10 and FGF22 binding inactive.
Screening COc1ccc(Cc2nnc(NC(=O)Nc3ccccc3)s2)cc1OC returned E coli growth 0.7, LANA-H2B inh -4.8, ALR H2O2 inh -9, UCH37 inh 1.8, Beta2AR agonist 6, HNF4A DNA FP -0.2 and FGF22 binding inactive.
`CC(C)Oc1cccc(C(=O)NC(=S)Nc2cccc(NC(=O)c3ccccc3Cl)c2)c1` gave E coli growth 0.72, LANA-H2B inh -8.6, ALR H2O2 inh -21, UCH37 inh 6.2, Beta2AR agonist -17, HNF4A DNA FP 2.8 and FGF22 binding inactive.
Screening Nc1cc(C(=O)OCC(=O)N2CCN(C(=O)COC(=O)c3ccc(Cl)c(N)c3)CC2)ccc1Cl returned E coli growth 0.73, UCH37 inh -10, Beta2AR agonist -2, HNF4A DNA FP 1.3 and FGF22 binding inactive.
For CCN(CC)CCCNc1nc2cc(OC)c(OC)cc2c2nc(-c3cccnc3)nn12 the results were E coli growth 0.72, LANA-H2B inh -0.6, ALR H2O2 inh -4, UCH37 inh 11, Beta2AR agonist 6 and HNF4A DNA FP -0.7.
For O=C(O)CC(NC(=O)c1ccccc1NC(=O)c1ccccc1)C(=O)O (centres undefined) the results were E coli growth 0.68, LANA-H2B inh 3.5, ALR H2O2 inh 1, UCH37 inh -0.6, Beta2AR agonist 0 and HNF4A DNA FP -2.4.
For CCn1c(CNC(=O)C(C)(C)C)nc2ccccc21 the results were E coli growth 0.72, LANA-H2B inh 2.3, ALR H2O2 inh -6, UCH37 inh 1.5, Beta2AR agonist 8, HNF4A DNA FP 2.2 and FGF22 binding inactive.
For C=CCNc1nc(-c2cccs2)c(CC(=O)O)s1 the results were E coli growth 0.71, LANA-H2B inh -0.8, ALR H2O2 inh 12, UCH37 inh 1.1, Beta2AR agonist 4, HNF4A DNA FP 9.0 and FGF22 binding inactive.
For COc1ccc(C2CC(c3ccc(Br)cc3)Nc3nc(N)nn32)cc1 (centres undefined) the results were E coli growth 0.71, LANA-H2B inh 5.8, ALR H2O2 inh -1, UCH37 inh 5.6, Beta2AR agonist 1 and HNF4A DNA FP 3.5.
For Cc1c(CCOC(=O)c2cc([N+](=O)[O-])cc([N+](=O)[O-])c2)sc[n+]1CC(=O)c1ccc(Br)cc1 the results were E coli growth 0.64, LANA-H2B inh -0.7, ALR H2O2 inh -23, UCH37 inh 5.6, Beta2AR agonist 9, HNF4A DNA FP -1.1 and FGF22 binding inactive.
Cc1ccc(N2C(=O)N(CC(=O)NCc3ccccc3Cl)C(=O)C2C)cc1 (centres undefined) was read as E coli growth 0.71, LANA-H2B inh 4.6, ALR H2O2 inh 2, UCH37 inh -0.2, Beta2AR agonist 0, HNF4A DNA FP 3.1 and FGF22 binding inactive.
For Cc1ccc2c(COC(=O)CC3Sc4ccccc4NC3=O)cc(=O)oc2c1C (centres undefined) the results were E coli growth 0.72, LANA-H2B inh -7.1, ALR H2O2 inh -2, UCH37 inh 6.8, Beta2AR agonist -13, HNF4A DNA FP 3.3 and FGF22 binding inactive.
`CCOC(=O)[C@H]1[C@H]2COc3ccc(OC)cc3[C@@H]2N2C(=O)CN(C)C(=O)[C@@]12C` gave LANA-H2B inh 5.4, ALR H2O2 inh 1, UCH37 inh 2.3, Beta2AR agonist 1, HNF4A DNA FP 0.7 and FGF22 binding inactive.
`O=C(O)/C=C\C(=O)Nc1ccc(N2CCN(c3ccc(Cl)cc3)CC2)cc1` gave LANA-H2B inh -0.2, ALR H2O2 inh 98*, Beta2AR agonist 8 and HNF4A DNA FP -1.7.
`CCN1C(=O)CS/C1=N\S(=O)(=O)c1ccc(C)cc1` gave LANA-H2B inh 9.1, ALR H2O2 inh -5, Beta2AR agonist 0, HNF4A DNA FP 0.5 and FGF22 binding inactive.
COc1cc(OC)c2c(-c3ccccc3)cc(=O)oc2c1C(CC(=O)N1CCOCC1)c1ccc2c(c1)OCO2 (centres undefined) was read as E coli growth 0.68, LANA-H2B inh 2.0, UCH37 inh -1.8, Beta2AR agonist -9, HNF4A DNA FP -4.6 and FGF22 binding inactive.
Screening S=c1[nH]c2cnc(Cl)nc2[nH]1 returned E coli growth 0.66, UCH37 inh 6.4, Beta2AR agonist 13, HNF4A DNA FP -1.3 and FGF22 binding inactive.
For CN1C(=O)C(O)(CC(=O)c2ccc(F)cc2)c2cc(Br)ccc21 (centres undefined) the results were E coli growth 0.71, LANA-H2B inh -2.7, ALR H2O2 inh -26, UCH37 inh 5.3, Beta2AR agonist 0, HNF4A DNA FP 3.4 and FGF22 binding inactive.
`COc1ccc(-c2cc(N)n(S(=O)(=O)c3c(F)c(F)c(F)c(F)c3F)n2)cc1OC` gave E coli growth 0.68, LANA-H2B inh -0.7, ALR H2O2 inh 30, UCH37 inh 5.0, Beta2AR agonist -239, HNF4A DNA FP -3.3 and FGF22 binding inactive.
For CCCCNC(=S)Nc1ccccc1Cc1ccccc1 the results were E coli growth 0.71, LANA-H2B inh -0.2, ALR H2O2 inh 66, UCH37 inh 2.9, Beta2AR agonist 0, HNF4A DNA FP 1.4 and FGF22 binding inactive.
Screening CCOC(=O)c1c(C)oc(NC(=O)COc2ccc(Cl)cc2C)c1C#N returned E coli growth 0.68, LANA-H2B inh -0.3, ALR H2O2 inh -2, UCH37 inh 3.0, Beta2AR agonist -1 and HNF4A DNA FP 3.7.
CCN(C[C@H]1N[C@@](C)(C(=O)OC)[C@H]2C(=O)N(C)C(=O)[C@@H]12)S(=O)(=O)c1ccc(C(F)(F)F)cc1 was read as LANA-H2B inh 4.1, Beta2AR agonist 2, HNF4A DNA FP 2.2 and FGF22 binding inactive.
For CC(C)NCc1cccc([N+](=O)[O-])c1 the results were E coli growth 0.66, LANA-H2B inh 5.6, ALR H2O2 inh -1, UCH37 inh 1.0, Beta2AR agonist -9, HNF4A DNA FP 7.4 and FGF22 binding inactive.
For O=C(O)CCSCc1ccccc1F the results were E coli growth 0.75, LANA-H2B inh 6.0, ALR H2O2 inh -4, UCH37 inh 1.8, Beta2AR agonist 1 and HNF4A DNA FP -5.6.
`CCOC(=O)CSc1nnc([C@H](C)NC(=O)OC(C)(C)C)o1` gave E coli growth 0.74, LANA-H2B inh 4.7, ALR H2O2 inh -2, UCH37 inh 1.7, Beta2AR agonist -1 and HNF4A DNA FP 3.2.
For CC1CC(C)CN(C(=O)C(C)N(C)CC(=O)Nc2ccc(Cl)cc2)C1 (centres undefined) the results were E coli growth 0.65, LANA-H2B inh 0.2, ALR H2O2 inh -3, UCH37 inh 1.0, Beta2AR agonist 0, HNF4A DNA FP 0.5 and FGF22 binding inactive.
For Cc1cc(C(C)(C)C)cc(S(=O)(=O)Nc2ccc(C(=O)O)cc2)c1C the results were E coli growth 0.65, LANA-H2B inh -2.0, UCH37 inh 3.1, Beta2AR agonist 2, HNF4A DNA FP -0.2 and FGF22 binding inactive.
Screening O=[N+]([O-])/C=C\c1ccc(N2CCOCC2)cc1 returned E coli growth 0.65, LANA-H2B inh 2.4, ALR H2O2 inh -5, UCH37 inh 1.4, Beta2AR agonist 20, HNF4A DNA FP -0.7 and FGF22 binding inactive.
Cc1sc2ncn(CC(=O)NCc3ccccn3)c(=O)c2c1S(=O)(=O)N1CCOCC1 was read as E coli growth 0.69, LANA-H2B inh 2.0, ALR H2O2 inh -11, UCH37 inh 2.6, Beta2AR agonist -5 and HNF4A DNA FP 5.2.
`OCC1N=C(c2ccccn2)OC1c1ccccc1` (centres undefined) gave E coli growth 0.66, LANA-H2B inh -1.4, ALR H2O2 inh -8, UCH37 inh 2.5, Beta2AR agonist -10 and HNF4A DNA FP -0.2.
Cc1ccccc1CC(=O)N1CCN(S(=O)(=O)c2ccc(Cl)s2)CC1 was read as E coli growth 0.65, LANA-H2B inh -0.2, ALR H2O2 inh -7, UCH37 inh 0.6, Beta2AR agonist -4, HNF4A DNA FP -0.2 and FGF22 binding inactive.
Screening O=C(Nc1ccc(F)cc1)NC1CCN(Cc2ccccc2)CC1 returned E coli growth 0.72, LANA-H2B inh 4.6, ALR H2O2 inh -17, UCH37 inh 6.0, Beta2AR agonist -4, HNF4A DNA FP 1.1 and FGF22 binding inactive.
`Fc1c(F)c(F)c(/C=N/NC(=S)Nc2cccnc2)c(F)c1F` gave LANA-H2B inh -9.6, ALR H2O2 inh 25, Beta2AR agonist 4 and HNF4A DNA FP -1.3.
CC(=O)/C(=N/Nc1cccc(Cl)c1)N1CCOCC1 was read as LANA-H2B inh 1.9, ALR H2O2 inh 98*, Beta2AR agonist 2 and HNF4A DNA FP 2.3.
`O=[N+]([O-])c1cc([N+](=O)[O-])c(N2CCOCC2)cc1NCc1ccccc1` gave E coli growth 0.69, LANA-H2B inh 10, ALR H2O2 inh -11, UCH37 inh 11, Beta2AR agonist 2 and HNF4A DNA FP 1.4.
`CCCn1c(NC(=O)CN2C(=O)NC3(CCCCC3)C2=O)nc2ccccc21` gave E coli growth 0.68, LANA-H2B inh -6.1, ALR H2O2 inh 1, UCH37 inh -6.9, Beta2AR agonist -8, HNF4A DNA FP -0.6 and FGF22 binding inactive.

Quoted at random: two compounds from above, in no set order.
CC(=O)/C(=N/Nc1cccc(Cl)c1)N1CCOCC1 was read as LANA-H2B inh 1.9, ALR H2O2 inh 98*, Beta2AR agonist 2 and HNF4A DNA FP 2.3.
`CCCn1c(NC(=O)CN2C(=O)NC3(CCCCC3)C2=O)nc2ccccc21` gave E coli growth 0.68, LANA-H2B inh -6.1, ALR H2O2 inh 1, UCH37 inh -6.9, Beta2AR agonist -8, HNF4A DNA FP -0.6 and FGF22 binding inactive.
